Screens (PubChem BioAssay)
VACV mCherry inh – inhibitors of vaccinia virus infection (mCherry reporter signal) | Vaccinia virus mCherry reporter infection, fluorescence; about a quarter of the inactives have no number | Potency, µM (series often up to 36.5 µM), without a hit: top-dose activity change, negative = inhibition, actives largely listed as inhibitors | hit rate 0.63% among 310,000 | AID 720579; active = well fitted inhibition curve with a large enough effect; inconclusive = small, poorly fitted or top-dose-only effect; inactive = no such curve, though single readings can be large or run the other way; tested in A549 cells; further: nearly all actives have a fitted effect of over 35% in size; inactives centre near -10
Vaccinia Venus – vaccinia inhibition (Venus reporter); hit rate 0.46% among 330,000; AID 720580; Vaccinia virus Venus reporter expression, fluorescence; Potency, µM (doses to about 36.5 µM), for inactives: at the top dose activity change, negative = inhibition, usual class: inhibitors; active means well fitted inhibition curve with a large enough effect; inconclusive means small, poorly fitted or top-dose-only effect; inactive means no such curve, though single readings can be large or run the other way; tested in A549 cells; further: nearly all actives have a fitted effect of over 30% in size; inactives centre near -10
Numbers without * were called inactive; i = inactive; ? = inconclusive; nt = not tested or not shown; [ ] = another dose, or the depositor's remark. On the % scale 0 is the no-effect control and ±100 the full control effect; potency means the concentration at half of the fitted maximal effect.

SMILES	VACV mCherry inh	Vaccinia Venus
Cc1ccc(S(=O)(=O)c2nc(S(C)(=O)=O)sc2N2CCCCCC2)cc1	-5%[7.34 µM]	0%[7.34 µM]
CCc1c(C)nc2cc(C)[nH]n2c1=O	nt	?
COc1cccc(NC(=O)c2cccc(Cl)c2)c1	-11%	-15%
COc1ccc(NC(=O)c2nc[nH]c2C(=O)N2CCC(C)CC2)cc1	-2%	-9%
CN(c1ccc(C(=O)N2CCc3ccccc3C2)cc1)S(C)(=O)=O	nt	-25%
CCCN(CCC)C(=O)Cn1c(=O)n(-c2ccccc2)c(=O)c2c3c(sc21)CCCC3	-9%	-10%
CCN(CC(=O)Nc1c(F)cccc1F)C(=O)CCNC(=O)c1ccc([N+](=O)[O-])cc1	-15%	-9%
Cc1ccc(S(=O)(=O)Nc2nc3ccccc3nc2NCc2ccc3c(c2)OCO3)cc1C	-9%	-4%
CCCOc1ccc(CSC(=N)N)cc1C(=O)OC	-3%	-20%
Cn1nnc(NC(=O)c2cccc(F)c2)n1	-6%	5%
COc1ccc(NC(=O)c2ccc3c(=O)n(CC4CCCO4)c(=S)[nH]c3c2)c(OC)c1 (stereo not drawn)	i	-5%
CCC(C(=O)Nc1ccc2c(c1)OCCO2)c1ccccc1 (stereo not drawn)	i	-11%
COCC(=O)Nc1nc(-c2ccc(C)cc2)c(C)s1	i	-25%
O=C(O)C/C=C(/NC(=O)OCc1ccccc1)C(=O)OCc1ccccc1	i	-5%
O=C(CN1C(=O)c2ccccc2C1=O)Nc1ccc(S(=O)(=O)N2CCOCC2)cc1	i	-5%
CCCCCCCCCC(=O)N[C@@H]1c2cc(OC)c(OC)cc2C[C@H]1OCc1ccccc1	?	10%
Cc1cc(C(=O)N2CCc3c([nH]c4ccccc34)C2c2c(F)cccc2Cl)no1 (stereo not drawn)	-26%	-23%
O=C(Cc1c(F)cccc1Cl)NCC(=O)OCc1ccccc1	-24%	4%
COc1ccccc1-c1noc(CCC(=O)NC2CCCC2)n1	-19%	-16%
CCn1cc2nc(SCc3cc(C)ccc3C)n(Cc3ccc(Cl)cc3)c(=O)c2n1	-23%	-8%
COc1ccc(C)cc1NC(=O)COCc1cc(-c2ccc(F)cc2)on1	-10%	-10%
Cc1ccc(-c2nnc(Nc3cccc(O)c3)c3ccccc23)cc1S(=O)(=O)N1CCOCC1	-20%	-28%
COc1ccc(-c2cc(NCc3ccccn3)n3ncnc3n2)cc1	i	-13%
CC(C)CCNC(=O)CSCc1cnn(-c2ccccc2)c1-n1cccc1	-7%	-15%
COc1ccc(Cc2nc3ccc(C(=O)NCc4cc(Br)ccc4OC)cc3o2)cc1	-13%[7.34 µM]	-6%[7.34 µM]
O=C(COC(=O)CNC(=O)c1ccccc1)NCCNC(=O)COC(=O)CNC(=O)c1ccccc1	-9%	10%
Cc1cccc(NC(=O)CSc2cc(C(=O)c3nccn3C)c3ccccc3n2)c1	-18%	5%
CCC(C)N(C(=O)COc1ccccc1C#N)C1CCS(=O)(=O)C1 (stereo not drawn)	i	-16%
COc1ccc(CCNCC(O)COc2cccc(C(C)=O)c2)cc1OC (stereo not drawn)	-2%	5%
Cc1cc(N2CCC(C(=O)Nc3ccc(F)cc3F)CC2)n2nc(C)c(-c3ccc(Cl)cc3)c2n1	3%	6%
CCOc1ccc2nc(SCC(=O)N(C)C)[nH]c2c1	0%	-12%
Cc1cn2c(=O)cc(COc3ccccc3NC(=O)c3ccc(Cl)cc3)nc2s1	5%	8%
COc1ccc(-c2nc3cc(C)c(Br)c(C)n3c2Cc2ccsc2)cc1OC	-3%	-5%
Cc1ccc(C(=O)NCc2ccc3c(c2)OCO3)c(Cl)c1	-10%	-9%
CCc1ccc(CNc2ncc(-c3cccc(OC)c3)n2C)cc1	?	?
Cc1csc2nnc(N)n12	-8%	6%
COCCNC(=O)/C(=C/c1ccccc1Cl)c1ccccc1	i	-29%
O=S(=O)(Nc1ccncc1Cl)c1ccccc1	nt	-9%
CC(C)(C)Oc1ncc(Br)c(OC(C)(C)C)n1	-16%	-2%
Cc1nc2ccccc2c(=O)n1-c1ccc(NC(=O)c2cccc([N+](=O)[O-])c2)cc1	-12%	-17%
COc1ccc2nc(N=Nc3ccc(O)c4ccccc34)sc2c1	i	-18%
COc1cc(NC(=O)CSC(=S)N2CCCC2)c(OC)cc1Cl	i	-8%
COc1ccc(-c2cc(C(F)(F)F)nc(N3CCOCC3)n2)cc1	-5%	-10%
C[C@@H]1O[C@@H](O[C@@H]2C(=O)c3c(O)cc(O)cc3O[C@H]2c2ccc(O)c(O)c2)[C@H](O)[C@H](O)[C@H]1O	-12%	3%
C/C(=N\Nc1ccc2nncn2n1)c1cccs1	-13%[7.34 µM]	-5%[7.34 µM]

Individual results from the list.
Reading for `Cc1csc2nnc(N)n12` in Vaccinia Venus: 6%
Reading for `Cc1nc2ccccc2c(=O)n1-c1ccc(NC(=O)c2cccc([N+](=O)[O-])c2)cc1` in Vaccinia Venus: -17%

Additional compounds follow:
SMILES	VACV mCherry inh	Vaccinia Venus
CC(=O)Oc1ccc(/C=N/NC(=S)Nc2ccccc2)cc1	-12%	-15%
O=[N+]([O-])c1cccc(-c2nnc3c4ccccc4c4ccccc4n23)c1	i	-13%
Cc1ccc(C)c(S(=O)(=O)c2nnn3c2nc(N2CCOCC2)c2sccc23)c1	?	-28%
CCCc1nnc(NC(=O)CC(=O)OCC)s1	nt	-21%
COc1ccc(N=C2NC(=O)/C(=C\C=C\c3ccco3)S2)cc1	-14%	-3%
Cc1cccc(Cn2cccc2CNS(=O)(=O)c2ccccc2F)c1	-1%	22%
O=C(CSc1ccccn1)Nc1ccc2c(c1)C(=O)c1ccccc1C2=O	-4%	-14%
Cc1cc2oc(=O)c3c(c2cc1OC(=O)c1ccco1)CCCC3	nt	-9%
COc1ccc(S(=O)(=O)N(CC(=O)Nc2cc(C)cc(C)c2)c2ccc(Cl)cc2)cc1	-18%	-11%
O=C(NCc1ccc(C(F)(F)F)cc1)C1CC(c2ccccc2[N+](=O)[O-])=NO1 (stereo not drawn)	-7%	-28%
Cc1cc(C(=O)N(Cc2cc3cc4c(cc3nc2N2CCOCC2)CCC4)CC2CCCO2)c(=O)[nH]c1C (stereo not drawn)	-6%	-19%
CC1CCN(C(=O)c2cc(Cl)nc3ccccc23)CC1	i	-1%
COC(=O)c1c(C)oc(C)c(C(=O)OC)c1=O	nt	-15%
C[C@H](CO)N1C[C@H](C)[C@@H](CN(C)C(=O)Nc2ccccc2)Oc2ccc(NC(=O)CCC(F)(F)F)cc2C1=O	i	-3%
CNC(=S)N/N=C/c1c(C)nn(-c2ccc(F)cc2)c1Cl	-8%	-23%
CCCCn1c(=O)[nH]c(=O)c2c1nc(-c1ccc(OCCC)c(OCC)c1)n2CCOC	i	-10%
Cc1ccc(-c2cnc(NCc3c(F)cccc3Cl)n2C)cc1	-19%	-7%
Cc1cccc(NC(=O)CCCCCn2c(=O)[nH]c3ccsc3c2=O)c1	5%	-4%
C=CCc1cccc(CNn2cnnc2)c1O	-6%	-11%
CCCCC(=O)Nc1ccc(NC(=O)c2ccc([N+](=O)[O-])cc2)cc1OC	-3%	-25%
CC(C)(C)/C(Cn1cncn1)=N\OC(=O)Nc1ccc(Cl)cc1	i	-17%
Cc1ccc(-c2csc(NC(=O)c3cccc([N+](=O)[O-])c3)n2)cc1	-19%	-9%
CCn1c(SCC(=O)Nc2cccc(NC(C)=O)c2)nnc1C(C)C	-1%	2%
COc1cc(C(=O)NCc2ccc(C)cc2)ccc1OCc1c(C)noc1C	nt	-15%
COc1ccc(OCC(O)CNC(=O)Nc2cccc3ccccc23)cc1 (stereo not drawn)	?	8%
C=CCNc1nc(N)c([N+](=O)[O-])c(N2CCCCCC2)n1	-16%	-16%
COc1cccc(-c2cnc3c(NC(C)=O)cc(-c4cccc(C(=O)NCCN(C)C)c4)cn23)c1	-8%	-13%
CC(=O)N1c2ccc(S(=O)(=O)N3CCN(c4ccc(C)cc4C)CC3)cc2CC1C (stereo not drawn)	?	-27%
Cc1ccc(C(=O)N2CCC(c3c[nH]c4ccccc34)(c3c[nH]c4ccccc34)CC2)cc1	-21%	-11%
C/C(=N\NC(=O)c1cccc(N2CCCC2=O)c1)c1ccc(N)cc1	-9%	0%

Ordered by molecular weight (high to low): part of the list above.
SMILES	VACV mCherry inh	Vaccinia Venus
C[C@H](CO)N1C[C@H](C)[C@@H](CN(C)C(=O)Nc2ccccc2)Oc2ccc(NC(=O)CCC(F)(F)F)cc2C1=O	i	-3%
Cc1cc(C(=O)N(Cc2cc3cc4c(cc3nc2N2CCOCC2)CCC4)CC2CCCO2)c(=O)[nH]c1C (stereo not drawn)	-6%	-19%
COc1cccc(-c2cnc3c(NC(C)=O)cc(-c4cccc(C(=O)NCCN(C)C)c4)cn23)c1	-8%	-13%
COc1ccc(S(=O)(=O)N(CC(=O)Nc2cc(C)cc(C)c2)c2ccc(Cl)cc2)cc1	-18%	-11%
CCCCn1c(=O)[nH]c(=O)c2c1nc(-c1ccc(OCCC)c(OCC)c1)n2CCOC	i	-10%
Cc1ccc(C(=O)N2CCC(c3c[nH]c4ccccc34)(c3c[nH]c4ccccc34)CC2)cc1	-21%	-11%
CC(=O)N1c2ccc(S(=O)(=O)N3CCN(c4ccc(C)cc4C)CC3)cc2CC1C (stereo not drawn)	?	-27%
O=C(NCc1ccc(C(F)(F)F)cc1)C1CC(c2ccccc2[N+](=O)[O-])=NO1 (stereo not drawn)	-7%	-28%
Cc1cccc(NC(=O)CCCCCn2c(=O)[nH]c3ccsc3c2=O)c1	5%	-4%
COc1ccc(OCC(O)CNC(=O)Nc2cccc3ccccc23)cc1 (stereo not drawn)	?	8%
CCn1c(SCC(=O)Nc2cccc(NC(C)=O)c2)nnc1C(C)C	-1%	2%
Cc1ccc(-c2csc(NC(=O)c3cccc([N+](=O)[O-])c3)n2)cc1	-19%	-9%
C/C(=N\NC(=O)c1cccc(N2CCCC2=O)c1)c1ccc(N)cc1	-9%	0%
Cc1ccc(-c2cnc(NCc3c(F)cccc3Cl)n2C)cc1	-19%	-7%
CNC(=S)N/N=C/c1c(C)nn(-c2ccc(F)cc2)c1Cl	-8%	-23%
C=CCNc1nc(N)c([N+](=O)[O-])c(N2CCCCCC2)n1	-16%	-16%
CC1CCN(C(=O)c2cc(Cl)nc3ccccc23)CC1	i	-1%
COC(=O)c1c(C)oc(C)c(C(=O)OC)c1=O	nt	-15%
C=CCc1cccc(CNn2cnnc2)c1O	-6%	-11%

Next compounds follow.
SMILES	VACV mCherry inh	Vaccinia Venus
Cc1cc(C(F)(F)F)n2[nH]c(=O)c(N=Nc3ccccc3)c2n1	-29%	-20%
CN(C)/C=C(\C(=O)c1ccccc1)c1nnnn1-c1ccccc1	-13%	-11%
Cc1ccc(Nc2nnc(C3C(=O)N(C)C4(C)CC3c3cc(Br)ccc3O4)s2)cc1 (stereo not drawn)	?	?
CCNC(=O)CCCOc1ccc(Cl)cc1Cl	-7%	-4%
Cc1cccc(C(=O)Nc2ccc(C(=O)/C=C/c3cccnc3)cc2)c1	i	-18%
Cc1cc(C(=O)CSc2nc3ccccc3c(=O)[nH]2)c(C)n1C	-21%	-12%
Cc1ccc(NC(=S)N2CCC(c3nc4ccccc4s3)CC2)cc1	-12%	-21%
O=C(c1ccco1)N1CCN(C(c2ccccc2F)c2nnnn2Cc2cccs2)CC1 (stereo not drawn)	-8%	-1%
Oc1ccc(C[C@H]2NCCc3cc(O)c(O)cc32)cc1O	-12%	-11%
Cc1cc(Cl)ccc1OCCSc1nnc(-c2cccs2)o1	5%	7%
CC1=Cc2ccccc2C(C#N)N1C(=O)c1ccccc1 (stereo not drawn)	-4%	-12%
COc1cc(-c2cccc([C@H]3[C@@H]4C=CC[C@@H](C)[C@@H]4C(=O)N3Cc3ccccc3)c2)cc(OC)c1OC	-26%	?
O=C(c1ccc2c3c(cccc13)C(=O)N(O)C2=O)N1CCCCC1	-22%[1.46 µM]	-7%
COc1cccc(NC(=O)c2oc3ccc(S(=O)(=O)N(C)C4CCCCC4)cc3c2C)c1	i	-10%
CC(=O)NC(C)c1nc2ccccc2n1CC(=O)N1C(C)CCCC1C (stereo not drawn)	-11%	-8%
CC1=C(C(=O)N(C)C)CC(CC(=O)NCCCCc2ccccc2)C(=O)N1Cc1ccc(F)cc1 (stereo not drawn)	-27%	-15%
